# High-throughput results as filed in PubChem.
# MT1-MMP act inh – blockers of MT1-MMP proenzyme processing, primary screen, HT1080 RFP-PRO-GFP cells, GFP/RFP fluorescence; AID 651647, 2012; actives 0.061% (n = 360,000); Matrix metalloproteinase-14 (Homo sapiens), P50281; GFP/RFP ratio change, % at 20 µM; GFP/RFP ratio fluorescence, overnight; percent of plate control window, DMSO zero;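 active means GFP/RFP ratio change of at least 30% with cell ATP level not reduced by more than half and red fluorescence within 50% of control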; further: strong numbers were not always called active
#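 Assay system: HT1080 RFP-PRO-GFP cells | Dosing: 20 µM single dose, 1% DMSO | Incubation: Cells overnight before dosing, compound overnight, 37 °C, 5% CO2 | Evaluation: GFP/RFP fluorescence ratio | Control set: DMSO-only wells and HT1080 RFP-L50D-GFP cell wells as references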
# Env fusion inh – inhibitors of HIV-1 Env-driven cell-cell fusion, primary screen, HeLa-JRFL effector, CEM21 target cells, luciferase. inhibition, % at 12.3 µM. actives 1.1% (n = 360,000). AID 651610, 2012;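 active means mean replicate inhibition score of at least 50 and every replicate individually at or above 50; inconclusive means only one of the two criteria met; inactive means mean below 50 and not all replicates reaching 50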;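 further: 0% = plate neutral controls and 100% = maraviroc near 300 nM; one replicate is shown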
# MT1-MMP act inh RFP – second read-out of MT1-MMP act inh, no call of its own (marks repeat the call); RFP signal change, %; measured here: RFP expression control read;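 0 = vehicle wells; hits needed this value within 50% of zero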
# An asterisk follows results filed as active; i = inactive; ? = inconclusive. The list is partial; rates above refer to the full screens.
# Results follow in this order: MT1-MMP act inh	MT1-MMP act inh RFP	Env fusion inh
Cc1ccc(S(=O)(=O)N2[C@H](CC(=O)Oc3ccccc3)OC[C@@H]2C(C)C)cc1
    4	1	0
CC1(C(=O)NCc2ccccc2)CSCC(=O)N1Cc1cccs1 (stereo not given)
    3	0	7
O=C1CCC(C(=O)OCC(=O)N2N=C3/C(=C\c4ccccc4)CCCC3C2c2ccccc2)N1 (stereo not given)
    0	-13	14
CC(C)[C@@H]1O[C@H](CCc2ccccc2)CC2=C1C(=O)OC(C)(C)O2
    -1	-9	12
CC(C)(C)NC(=O)C(c1ccccc1F)n1c(=O)c(-c2ccccc2)nc2ccccc21 (stereo not given)
    2	-6	11
COC(=O)C1(C(=O)OC)c2cc3c(cc2CN(S(=O)(=O)c2ccc(C)cc2)C1CC(C)=O)OCO3 (stereo not given)
    7	5	-17
CCOC(=O)N1CCN(C(=O)C[C@@H]2C[C@@]3(C(=O)OC)CC(C)(C)CC=C3N(Cc3ccc4c(c3)OCO4)C2=O)CC1
    0	-1	8
CC1=C(C(=O)N2CCCCCC2)CC(CC(=O)NCCc2ccccn2)C(=O)N1Cc1ccc(C(C)(C)C)cc1 (stereo not given)
    13	1	-2
COc1ccc(NC(=O)C(c2cccc3ccccc23)n2c(=O)c(-c3ccco3)nc3ccccc32)cc1 (stereo not given)
    0	3	-26
C[C@@H]1O[C@H](C2CCCCC2)Cc2[nH][nH]c(=O)c21
    1	3	8
Cc1ccccc1NC(=O)C1C(=O)Nc2ccccc2C(=O)N1Cc1ccccc1 (stereo not given)
    2	5	17
CCCCc1c(-c2ccccc2OC)ncn1Cc1ccc(Cl)cc1
    3	-15	-17
Oc1ccc2ccccc2c1C=NNc1ccccn1
    -3	-2	41
Oc1cccc(CN2CCN(c3ncc(Cc4ccccc4)cn3)CC2)c1
    4	-3	22
Cc1ccc(C)c(N2CCN(C3C(=O)Nc4ccccc4-n4nnnc43)CC2)c1 (stereo not given)
    -10	-15	-56

# Single values from the results shown:
# In MT1-MMP act inh RFP, COC(=O)C1(C(=O)OC)c2cc3c(cc2CN(S(=O)(=O)c2ccc(C)cc2)C1CC(C)=O)OCO3 (stereo not given) reads 5
# In MT1-MMP act inh, Cc1ccccc1NC(=O)C1C(=O)Nc2ccccc2C(=O)N1Cc1ccccc1 (stereo not given) reads 2

# (listing goes on)
# Results follow in this order: MT1-MMP act inh	MT1-MMP act inh RFP	Env fusion inh
O=C(NC1CCN(Cc2ccccc2)C1)c1cccc(S(=O)(=O)N2CCOCC2)c1 (stereo not given)
    -4	2	-13
O=S(c1ccccc1O)S(=O)c1ccccc1O (stereo not given)
    0	1	3
CC(=NNC(=S)N1CCCCC1)c1cccc(C)n1
    5	2	4
C[C@H]1CN(c2ccccc2)C(=O)[C@@H]1CC(=O)Nc1ccccc1
    3	5	-6
COC(=O)c1ccc2nc(-c3ccc(C)cc3)c(Cc3cccc(F)c3)n2c1
    -7	-14	28
C=C1CC(Cn2cc(Br)c(=O)[nH]c2=O)(c2ccc(-c3ccccc3)cc2)OC1=O (stereo not given)
    6	-25	42
CCCCCCCCN1C(=O)[C@H](CC(=O)NCC2CCCCC2)C[C@@]2(C(=O)OCC)CCC=C12
    -3	-13	28
NC(N)=N/N=C(\N=Nc1ccccc1)c1ccc(Cl)cc1
    0	-3	-24
Cc1cccc(C)c1NC(=O)C(c1cc2ccccc2o1)N1CCC(c2ccccc2)CC1 (stereo not given)
    -20	-24	-3
CCN(CC(=O)Nc1c(F)cccc1F)C(=O)c1nc2nc(C)cc(C)n2n1
    2	-1	6
CC(C)n1nnnc1C1c2ccccc2C(=O)N1CCCN1CCOCC1 (stereo not given)
    5	9	6
Cc1ccc2c(c1)C1(SC(C)C(=O)N1c1ccc(Cl)cc1)C(=O)N2 (stereo not given)
    -4	-4	-12
COc1ccc(-c2nnc(SCC(=O)NC3CCCCC3)n2N)cc1
    -1	-5	2
O=C1/C(=C/c2ccccc2)CN(C(=O)CCN2CCOCC2)C/C1=C\c1ccccc1
    -2	-24	-56
CC(=O)c1ccc(OC(=O)Oc2ccc(C(C)=O)cc2)cc1
    -1	1	-7
COC(=O)[C@]12CCCCC=C1N(CCc1ccc(OC)c(OC)c1)C(=O)[C@H](CC(=O)NCCc1ccccc1OC)C2
    3	-3	-11
Cc1cccc(C)c1-n1nnnc1C(c1ccnc2ccccc12)N1CCCN(C(=O)OC(C)(C)C)CC1 (stereo not given)
    -6	-16	14
Cc1cccc(N2CCN(C(C(=O)NCc3ccccc3)c3ccc(C(F)(F)F)cc3)CC2)c1C (stereo not given)
    -10	-1	-12
CC(C)Nc1nc(NCCOc2ccccc2)c2sccc2n1
    1	-13	33
Cc1noc(C)c1S(=O)(=O)NC(=O)C1(C)CCN1C(=O)C1(c2ccc(Cl)cc2)CCC1 (stereo not given)
    3	3	-8
CCCCOCCCNC(=O)C[C@@H]1C[C@@]2(C(=O)OCC)CCC=C2N(Cc2ccco2)C1=O
    0	6	-2
Cc1cccc(C)c1-n1nnnc1C1(C)CCC(=O)N1CC(F)(F)F (stereo not given)
    2	5	-9
CCCCCCN1CCN(C2CN(Cc3cn(Cc4cc(C)cc(C)c4)nn3)S(=O)(=O)C2)CC1 (stereo not given)
    6	-2	16
C[C@@H]1CC2=C(C(=O)OC(C)(C)O2)[C@@H](C2CC2)O1
    5	8	-64
CC(=O)Nc1cccc(C(=O)N2CCN(S(=O)(=O)Cc3ccccc3)CC2)c1
    2	3	3
CCOC(=O)[C@]12CCC=C1N(Cc1ccco1)C(=O)[C@H](CC(=O)NCc1ccccc1)C2
    1	2	-17
COc1ccc(/C=C2/CCC(CN3CCOCC3)C2=O)cc1 (stereo not given)
    2	-5	-52
CC(Nc1ccc([N+](=O)[O-])cc1[N+](=O)[O-])c1ccccc1 (stereo not given)
    17	2	-1
O=C1CCCCC(=O)[C@H](OC(=O)c2ccccc2)C[C@H](c2ccccc2)O1
    0	2	-10
Cn1c(=O)c2[nH]c(C(O)c3ccc(Cl)cc3)nc2n(C)c1=O (stereo not given)
    4	-2	-4
CCOC1=C2[C@@H](CN(S(=O)(=O)c3ccccc3C)[C@H]2c2ccc(Cl)cc2)[C@H]2C(=O)N(C3CCCCC3)C(=O)[C@H]2C1
    -3	-19	52
O=c1[nH]c(=O)n(C2CC(O)C(CO)O2)cc1I (stereo not given)
    4	11	-340
O=C(NCc1cccc(C(F)(F)F)c1)C1C(=O)Nc2ccccc2C(=O)N1C1CCCC1 (stereo not given)
    2	5	-12
CC(C)Nc1ncnc2c1ncn2[C@H]1CN(Cc2cccs2)C[C@@H](CO)O1
    7	6	-14
CCCCCCCCN1C(=O)[C@H](CC(=O)N2CCCC2)C[C@@]2(C(=O)OC)CC(C)(C)CC=C12
    -25	-27	24
CNC(=O)OCc1nc(SC2CCCCO2)n(C)c1COC(=O)NC (stereo not given)
    0	4	9
COc1ccc(C2CCc3cc(OC)c(OC)cc3C2NC=O)cc1OC (stereo not given)
    6	1	5
COc1ccc(NC(=O)C(C2CC2)n2c(=O)c(-c3ccccc3)nc3ccccc32)cc1 (stereo not given)
    -4	-3	-19
CC1(C)Cc2c(c(N3CCOCC3)nc3sc4c(NCCN)ncnc4c23)CO1
    8	-9	14
CCC(c1nnnn1-c1ccc2c(c1)OCCO2)N1CCN(c2cccc(C)c2C)CC1 (stereo not given)
    -3	-16	8
O=c1[nH][nH]c2c1[C@H](c1ccc(Cl)cc1)O[C@H](CCc1ccccc1)C2
    7	-1	25
Cc1ccccc1C(=O)N1CCC[C@H]1C(=O)N1CCC[C@H]1C(=O)NCc1ccccn1
    2	4	1
COc1ccc([C@H]2CC(=O)C[C@@H](CCn3nnc4ccccc43)O2)cc1
    3	0	-3
Cc1ccc(S(=O)(=O)NN=C2CC3CC2C2CCCC32)cc1 (stereo not given)
    -5	3	-3
CCc1c(-c2ccc(OC)cc2)ncn1Cc1cccc(-c2ccccc2)c1
    10	-24	10
O=C1c2ccccc2C(=O)N1N=Cc1ccc2c(c1)OCO2
    -3	6	-10
COC(=O)[C@]12CCCCC=C1N(Cc1ccco1)C(=O)[C@H](CC(=O)NCc1ccc(C)o1)C2
    1	11	6
CCC(CC)n1c(C)cc(=O)n1C(CC)CC
    2	2	-5
COc1cc(OC)cc(C2=Cc3ccc(OC)cc3C(CC(C)=O)N2c2ccc(C#CCCO)cc2)c1 (stereo not given)
    2	-2	0
Nc1[nH]c(C(=O)c2ccccc2)c(-c2ccccc2C(F)(F)F)c1C(=O)NCc1cccc2ccccc12
    3	3	-24
COC(=O)[C@]12CCCCC=C1N(Cc1cccc3ccccc13)C(=O)[C@H](CC(=O)N1CCSCC1)C2
    -5	-13	10
Nc1ccn([C@@H]2O[C@H](C(=O)N3CCCN(Cc4ccccc4F)CC3)[C@@H](O)[C@H]2O)c(=O)n1
    3	5	15
CCCCC[C@@H]1CCCCC[C@@H](O)C[C@H](O)[C@H](O)/C=C/C(=O)O1
    1	-1	1
O=C1NC[C@H](CCCCN2C[C@H](Cc3ccccc3)N(CCc3ccccc3)C(=O)C2=O)N(CCC2CCCCC2)C1=O
    3	-7	i
CCCNC(=O)C[C@@H]1CC[C@H]2NC[C@H](O)COC[C@@H]2O1
    0	9	-14
COc1cccc(CNC(=O)[C@@H]2CCCN2C(=O)[C@@H]2CCCN2C(=O)c2ccc(Cl)cc2)c1
    5	5	3
CCOc1ccc(NC(=O)CN(C)C(=O)C2COc3ccccc3O2)cc1OCC (stereo not given)
    10	0	1
Cc1cc(C([O-])=C(C(=S)Nc2ccccc2)[n+]2ccccc2)c(C)n1-c1ccccc1
    -4	2	-3
COc1cc(CN2C[C@@H](CO)O[C@@H](n3cnc4c(NCCN(C)C)ncnc43)C2)cc(OC)c1OC
    2	5	-10
O=C(CC(O)(c1ccccc1)c1ccccc1)Nc1ccccn1
    2	2	-6

# Arranged by molecular weight (largest number first): 6 of the compounds above.
# Results follow in this order: MT1-MMP act inh	MT1-MMP act inh RFP	Env fusion inh
Nc1[nH]c(C(=O)c2ccccc2)c(-c2ccccc2C(F)(F)F)c1C(=O)NCc1cccc2ccccc12
    3	3	-24
COc1cccc(CNC(=O)[C@@H]2CCCN2C(=O)[C@@H]2CCCN2C(=O)c2ccc(Cl)cc2)c1
    5	5	3
Nc1ccn([C@@H]2O[C@H](C(=O)N3CCCN(Cc4ccccc4F)CC3)[C@@H](O)[C@H]2O)c(=O)n1
    3	5	15
CCCCC[C@@H]1CCCCC[C@@H](O)C[C@H](O)[C@H](O)/C=C/C(=O)O1
    1	-1	1
O=C(CC(O)(c1ccccc1)c1ccccc1)Nc1ccccn1
    2	2	-6
O=C1c2ccccc2C(=O)N1N=Cc1ccc2c(c1)OCO2
    -3	6	-10

# New compounds follow
# Results follow in this order: MT1-MMP act inh	MT1-MMP act inh RFP	Env fusion inh
CC1=C(C(=O)N(C(C)C)C(C)C)CC(CC(=O)NCC2CCCCC2)C(=O)N1Cc1ccc(C(C)(C)C)cc1 (stereo not given)
    -12	-26	4
CCNC(=O)c1cc2c(c(-c3cccc(-c4ccccc4F)c3)n1)[C@H](CCO)N(C(=O)CC)C2
    4	-3	1
CCC(c1nnnn1-c1c(C)cccc1C)N1CCN(CCN2CCOCC2)CC1 (stereo not given)
    7	5	5
COc1cc(C2C3=C(COC3=O)Oc3cc4c(cc32)OCO4)ccc1OC(C)=O (stereo not given)
    15	-1	-251
O=C(Nc1cccc2ccccc12)N(c1ccccc1)c1ccccc1
    5	2	37
COc1cc(-c2cc(=O)c3c(C)cc(O)cc3o2)cc(OC)c1OC
    6	-1	-166
Cc1ccc(S(=O)(=O)N2CCC[C@H]2C(=O)OCc2nc3ccccc3s2)cc1
    1	5	-23
N#Cc1cccc(C(=O)C(=O)N2CCC(c3ccccc3)CC2)c1
    -1	0	11
O=S1(=O)N[C@@H](Cc2ccccc2)COc2cc(N3CC[C@H](O)C3)ccc21
    4	-9	12
COC(=O)[C@@]1(Sc2ccc(C)cc2)CC(=O)N(c2ccc3c(ccn3C)c2)[C@@H]1c1ccccc1
    -4	-8	7
Cc1cccc(C)c1-n1nnnc1C(c1ccnc2ccccc12)N(C)Cc1ccccc1 (stereo not given)
    -8	-17	34
CC(C)(C)NCCC(O)c1cc(C(F)(F)F)nc2c(C(F)(F)F)cccc12 (stereo not given)
    -3	-5	15
CCCNC(=O)C1(C)CCCN(CC(=O)c2ccccc2OC)C1 (stereo not given)
    1	5	-5
COc1ccc(OC)c(CN2C(=O)CCC2(C)c2nnnn2-c2c(C)cccc2C)c1 (stereo not given)
    1	2	6
COc1ccc(CN2CCC2(C)C(=O)Nc2cccc(NS(C)(=O)=O)c2)c2ccccc12 (stereo not given)
    5	-1	?
CCOC(=O)CC1(C)Sc2ccccc2N1S(=O)(=O)c1ccc(C)cc1 (stereo not given)
    9	-7	22
COc1ccc(-c2nc3cc(C)c(Br)c(C)n3c2Cc2ccsc2)cc1OC
    1	-7	7
CC(C)CCN1C(=O)c2ccccc2C1c1nnnn1Cc1ccccc1 (stereo not given)
    2	0	21
CCC(=O)N1CCc2cc(Br)c(S(=O)(=O)NCCN3CCCCC3CC)cc21 (stereo not given)
    2	0	4
